PK Bst = modulators of Bacillus stearothermophilus pyruvate kinase | partly purified Bacillus stearothermophilus pyruvate kinase, luminescence ATP production; ribose 5-phosphate activator present at AC10 | Potency, µM | actives 1.2% (n = 51,000) | AID 361; in the data active means potency below about 11 µM; inconclusive means mostly about 12 µM to 25 µM; inactive means weaker than that;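 the screen sought inhibitors and activators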;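 also: potency is read from the fitted curve at half-maximal effect; scaled between full activation by ribose 5 phosphate and full inhibition by luteolin; about four in five hits inhibit and the cells do not say which; series up to 57 µM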
YjeE inh = inhibitors of E. coli YjeE (TsaE). P0AF67. purified YjeE, fluorescence polarisation of a bound ADP probe. actives 0.05% (n = 71,000). Potency, µM; active = well fitted falling curve; inconclusive = weaker or top-dose-only fall, or a rising curve; inactive = flat or poorly fitted curve;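 also: top concentration of the series not given in the record; excess ADP was the control for the full effect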
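Fluorescence polarization of a BODIPY Texas Red–ADP probe (2 uM) bound to purified YjeE (10 uM) was read after 15 min room-temperature incubation with compounds. Loss of polarization marks inhibitors; ADP serves as titrated control.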
* marks the source's active call; other numbers are inactive results; i = inactive; ? = inconclusive; / = no result given.

nr	SMILES	PK Bst	YjeE inh
1	CN(C)S(=O)(=O)c1ccc(S(=O)(=O)Nc2ccc3c(c2)oc2ccccc23)cc1	>57	i
2	CCOCCNC(=O)c1ccccc1C(=O)NCCOCC	>57	i
3	Cc1cccc(NC(=O)c2cnc3ccccn3c2=O)c1	/	i
4	CCCc1c(C)c2cccc(C)c2[nH]c1=O	/	i
5	COC(=O)c1ccc(C(NC(=O)OCc2ccccc2)/C(=C/[C@@H](C)C(=O)NCc2ccc(S(C)(=O)=O)cc2)c2cccnc2)cc1 (some centres undefined)	/	i
6	Cc1ccc(C2Nc3ccccc3-c3nc4ccccc4n32)o1 (centres undefined)	/	i
7	O=C(O)c1ccccc1OP(=O)(O)O	/	i
8	COc1cccc(C(=O)Cn2c(=N)n(C)c3ccccc32)c1	2.5*	i
9	COc1cccc(S(=O)(=O)Nc2ccc(C(=O)NCc3ccco3)cc2)c1	?	i
10	CC(=O)Nc1ccc(NC(=O)C2CC(=O)N(c3cccc(C)c3C)C2)cc1 (centres undefined)	/	i
11	CCN(CC)S(=O)(=O)c1ccc(/C(O)=C2/C(=O)C(=O)N(CCOC)C2c2ccccc2)cc1 (centres undefined)	>57	i
12	CCOC(=O)N1CCN(c2c(NCCCN(CC)Cc3ccccc3)c(=O)c2=O)CC1	>57	i
13	CCc1noc(C)c1C(=O)N1CCCC1	>57	i
14	CCCCCc1nnc(NC(=O)Cc2cccs2)s1	>57	i
15	CCCN1Cc2cccc(C(=O)NCc3ccccc3)c2C1=O	>57	i
16	COc1c2occc2c(OC)c2c(=O)cc(C)oc12	>26	i
17	Cc1cccc(C)c1OCCOCCN1CCN(C)CC1	>57	i
18	N#Cc1ccc(CN2CCC3(CC2)CCN(C(=O)c2cnccn2)CC3)cc1	/	i
19	CN1CC[C@@]2(CCCN(C(=O)c3cccc(F)c3)C2)C1	/	i
20	C=CCSc1nnc2n(CCc3ccccc3)c(=O)c3c4c(sc3n12)COC(C)(C)C4	>26	/
21	COc1ccc2c(c1OC)C(=O)OC2Nn1cncn1 (centres undefined)	>57	i
22	COc1ccc(-c2nc(N3CCCC3)nc3nn4c(C)cc(C)nc4c23)cc1	>57	i
23	COc1ccccc1-c1noc(-c2ccccc2)n1	?	i
24	NC(=O)C1(N2CCCCC2)CCN(C(=O)CSc2nc3ccccc3s2)CC1	>57	i
25	Cc1c(C(=O)NCC2CCCO2)sc2nc(-c3ccc(F)cc3)cn12 (centres undefined)	/	i
26	O=C(Nc1nc(-c2cccs2)cs1)c1ccc(S(=O)(=O)N2CCCCC2)cc1	/	i
27	COc1ccc(OC)c(NS(=O)(=O)c2ccc(Cl)s2)c1	>57	i
28	O=C(CCOc1ccccc1)NCC(c1ccco1)N1CCCCC1 (centres undefined)	>57	i
29	COc1ccc(C)cc1N(CC(=O)NC1CCCC1)C(=O)CCC(=O)Nc1cc(C)on1	>57	i
30	CCCCc1ccc(NC(=O)C2CCN(S(C)(=O)=O)CC2)cc1	>57	i

Retrieved by compound from the list above, three records:
nr	SMILES	PK Bst	YjeE inh
29	COc1ccc(C)cc1N(CC(=O)NC1CCCC1)C(=O)CCC(=O)Nc1cc(C)on1	>57	i
4	CCCc1c(C)c2cccc(C)c2[nH]c1=O	/	i
30	CCCCc1ccc(NC(=O)C2CCN(S(C)(=O)=O)CC2)cc1	>57	i

Returning to the listing; the two compounds before the break are reprinted first.
nr	SMILES	PK Bst	YjeE inh
29	COc1ccc(C)cc1N(CC(=O)NC1CCCC1)C(=O)CCC(=O)Nc1cc(C)on1	>57	i
30	CCCCc1ccc(NC(=O)C2CCN(S(C)(=O)=O)CC2)cc1	>57	i
31	CCCCn1c(=O)n(CC(O)c2ccccc2)c(=O)c2c1ncn2C1CCCC1 (centres undefined)	>57	i
32	NC(N)=NN=Cc1c(Cl)cccc1Cl	/	i
33	CC1CCCN(Cc2nc3c(c(=O)n(C)c(=O)n3C)n2CCc2ccccc2)C1 (centres undefined)	>57	i
34	COc1ccc(NC(=O)C2CCCCN2S(=O)(=O)c2ccc(F)cc2)c(OC)c1 (centres undefined)	>57	i
35	COc1cc(CC(=O)OCC(=O)Nc2ncc(Cl)cc2Cl)cc(OC)c1OC	>11	i
36	O=C(NCc1ccco1)c1ccc(NC(=O)C2COc3ccccc3O2)cc1 (centres undefined)	>57	i
37	CC(=O)c1cccc(NC(=O)C2C3C=CC(C4CC34)C2C(=O)O)c1 (centres undefined)	>57	i
38	c1ccc(CCn2nnnc2CN2CCN(C3CCCC3)CC2)cc1	>57	i
39	CCOc1ccc(OCC)c(NC(=O)C2CCN(c3nn4c(=O)cc(C)nc4s3)CC2)c1	/	i
40	COc1ccc(-c2oc3ncn4nc(Cc5ccccc5)nc4c3c2-c2ccc(OC)cc2)cc1	>26	/
41	CCOC(=O)Cc1csc(/C(=N/O)C(N)=O)n1	>57	i
42	Oc1cnc2ccccc2c1CN1CCOCC1	>57	i
43	N#Cc1cc2ccccc2nc1SCc1ccccn1	/	i
44	O=C(CSc1nnc(NC(=O)c2ccco2)s1)NC1CCCC1	>57	i
45	CCc1ccccc1NC(=O)N1C2CCCC1CC(NC(=O)C(C)(C)C)C2 (centres undefined)	>57	i
46	Nc1nc(Cl)nc2c1ncn2[C@@H]1O[C@@H](CO)[C@@H](O)[C@H]1O	/	i
47	O=C(NC1CCCC1)c1ccc(CS(=O)(=O)c2ccc(Br)cc2)o1	/	i
48	c1ccc2c(c1)CCN(c1ncnc3c1[nH]c1ccccc13)C2	?	/
49	CC(C)Cn1c(SC(C)C(=O)Nc2ccc3c(c2)OCCO3)nc2ccccc2c1=O (centres undefined)	>57	i
50	CC(C)c1nc(-c2ccccn2)no1	>57	i
51	CCOc1ccc(N(CC(=O)O)S(=O)(=O)c2cccnc2)cc1	/	i
52	CCOC(=O)c1cccc(NC(=O)C(C)N2C(=O)c3ccccc3C2=O)c1 (centres undefined)	>57	i
53	Cn1c(SCc2ccon2)nc2ccccc2c1=O	/	i
54	CCN1CC2=C(OC(N)=C(C#N)C2c2ccccc2)/C(=C\c2ccccc2)C1 (centres undefined)	>26	/
55	COc1ccc(/C=N/n2c(N)nc3ccccc32)cc1OC	8.4*	i
56	CCn1c(SCC(=O)Nc2ccccc2C(=O)OC)nc2c1c(=O)n(C)c(=O)n2C	/	i
57	C=CS(=O)(=O)c1ccc(Oc2ccc(S(=O)(=O)C=C)cc2)cc1	>57	i
58	CCN(CC)CCn1nc(C)nc1-c1ccccc1O	>57	i
59	Cc1cc(C)c(S(=O)(=O)Nc2cccc(C(F)(F)F)c2)c(C)c1	/	i
60	CCOC(=O)N1CCC(NC(=O)Cn2cccc2C(=O)c2ccccc2C)CC1	>57	i
61	O=C(CCCOc1ccccc1)Nc1ccncc1	>57	i
62	O=C(NCCc1ccncc1)C(F)(F)F	/	i
63	O=C(CCS(=O)(=O)c1cccc2nonc12)N1CCN(c2ccc(F)cc2)CC1	>57	i
64	COc1cc(NC(=O)CSc2nc(C)cs2)cc(OC)c1	>57	i
65	CCS(=O)(=O)N1CCC(C(=O)N2CCc3ccccc3C2)CC1	>57	i
66	CCOc1ccc2[nH]c(=O)c(CN(Cc3ccc(F)cc3)C(=O)N3CCCC3)cc2c1	>57	i
67	Cn1c(=O)n(CCc2ccccc2)c(=O)c2c1nc1n2CCCN1Cc1ccccc1	>57	i
68	COCCNC(=O)CSc1nc2ccccc2c(=O)n1-c1cccc(OC)c1	>57	i
69	CCCCCOC(=O)Cc1c(O)c2ccccc2n(C)c1=O	>57	i
70	COc1ccc(Cl)cc1NC(=O)COc1cccc(-n2cnnn2)c1	>57	i
71	O=C(/C=C1\NC2(CCCC2)Cc2ccccc21)N1CCOCC1	>57	i
72	COc1cc(Cl)c(C)cc1NC(=O)CSc1nnc(-c2ccco2)n1CC(C)C	>57	i
73	CCN(c1cccc(C)c1)S(=O)(=O)c1cccc2nsnc12	/	i
74	CCCC1CCC(c2nc(-c3cccnc3)no2)CC1 (centres undefined)	>57	i
75	CCOc1cc(N2CCOCC2)c(OCC)cc1NC(=O)c1cc(-c2ccco2)nc2ccccc12	>57	i
76	COc1ccc(NC2=NCC(=O)N2c2ccccc2)c(OC)c1	>57	i
77	Cc1cc(NC(=O)c2cc(C3CC3)on2)no1	/	i
78	O=C(CCCc1nc2ccccc2s1)Nc1nccs1	>57	i
79	c1ccc2c(NC3CCCC3)nnc(NC3CCCC3)c2c1	/	i
80	CC(=O)CSc1nc2ccc(Nc3nc(N4CCOCC4)nc(N4CCOCC4)n3)cc2s1	/	i
81	COc1cc(CNc2ccc3c(c2)CCC3)cc(OC)c1O	/	i
82	O=C(Cn1c(NCCO)nc2ccccc21)NCCc1ccccc1	>57	i
83	CCn1cc(C2N3CC4(C)CN2CC(C)(C3)C4=O)c2ccccc21 (centres undefined)	/	i
84	CSCCC(NC(C)=O)C(=O)Oc1ccc2c3c(c(=O)oc2c1)CCCC3 (centres undefined)	/	i
85	CSCSC1=C(C#N)C(c2ccccc2Cl)C(C(C)=O)=C(C)N1 (centres undefined)	/	i
86	COc1ccc(NC(=O)CCNC(C)=O)cc1NS(=O)(=O)c1ccc(F)cc1	>57	i
87	CC(=O)Nc1cccc(OCC(=O)Nc2ccc(F)cc2)c1	>57	i
88	CCCn1cnc2cc(NCc3ccccn3)ccc21	/	i
89	Cc1nnc(NC(=O)C2CCCN(c3ncccn3)C2)s1 (centres undefined)	>57	i
90	O=C(COc1cccc2ccccc12)N1CCN(c2ccccc2)CC1	/	i

Compounds from the list above containing a CF3 group, in the order listed:
nr	SMILES	PK Bst	YjeE inh
59	Cc1cc(C)c(S(=O)(=O)Nc2cccc(C(F)(F)F)c2)c(C)c1	/	i
62	O=C(NCCc1ccncc1)C(F)(F)F	/	i

(further entries)
nr	SMILES	PK Bst	YjeE inh
91	CC(=O)c1ccc(NC(=O)CSc2nnc(Cn3c(=O)sc4ccccc43)n2C)cc1	/	i
92	O=C(O)C1C2CCC(O2)C1C(=O)NCc1ccncc1 (centres undefined)	>57	i
93	CCC(C)NC(=O)C1CCC(=O)N(c2cc(OC)c(OC)c(OC)c2)C1c1ccc(OC)cc1 (centres undefined)	>57	i
94	COc1ccc(NC(=O)CCN2CCCC(C)C2)cc1 (centres undefined)	>57	i
95	COc1ccc2[nH]cc(C(=O)CN3CCCC(C)C3)c2c1 (centres undefined)	>57	i
96	O=C(Cn1c(-c2cncs2)nc2ccccc21)NC1CCCC1	>57	i
97	Cc1cc(C)c(-c2cc(C(=O)Nc3c(C)n(C)n(-c4ccccc4)c3=O)[nH]n2)c(O)c1	>57	i
98	O=c1cc(-c2ccccc2)c2c([nH]1)CCCC2	>57	i
99	COc1ccc(CCNC(=O)COc2nsnc2N2CCOCC2)cc1OC	>57	i
100	O=C1CSC(c2ccncc2)N1Cc1ccco1 (centres undefined)	>57	i
101	COc1ccc(OC)c(N)c1	>57	i
102	CN(C)C(=O)C12CCC(C)(c3nc4ccccc4nc31)C2(C)C (centres undefined)	>57	i
103	O=C(O)c1ccccc1S(=O)(=O)Cc1ccccc1	>57	i
104	Cc1cccc(C)c1NC(=O)CSc1nnnn1C	>57	i
105	Cc1cc(-c2cc(N)n(-c3ccccc3)n2)c(C)n1C1CCCC1	/	i
106	CCCn1nnnc1SCC(=O)c1ccc2c(c1)OCCO2	>57	i
107	COc1ccc2c(c1)CCc1c(C(=O)Nc3ccc(OC)c(OC)c3)noc1-2	>57	i
108	CCCCC(CC)COC(=O)c1ccccc1C(=O)O (centres undefined)	/	i
109	CN(C)CCCN1C(=O)C(=O)/C(=C(/O)c2ccc3c(c2)OCCO3)C1c1ccccn1 (centres undefined)	>57	i
110	COc1cc(C(=O)OCC(=O)N2CCCC2)cc(OC)c1OC	>57	i
111	CCOC(=O)C1CCCN(Cc2ccccc2F)C1 (centres undefined)	>57	i
112	CCOc1ccc(Nc2cc(C)nc(N3CCOCC3)n2)cc1	1.4*	i
113	Cc1cc(C)c2c(c1)OC(O)(C(F)F)CC2=O (centres undefined)	/	i
114	C[C@]1(C2CCCC2)Cc2cc(OCC(=O)O)c(Cl)c(Cl)c2C1=O	/	i
115	COC(=O)C(F)(Sc1c(C)n(C)n(-c2ccccc2)c1=O)C(F)(F)F (centres undefined)	>57	i
116	CC(C)(C)c1ccc(C(=O)C=[N+]=[N-])cc1	>11	/
117	CN=C1SC(CC(=O)NCCc2ccc(OC)c(OC)c2)C(=O)N1C (centres undefined)	>57	i
118	CC(=O)Nc1ccc(S(=O)(=O)NCC2CCC(C(=O)NCCCN3CCCC3=O)CC2)cc1 (centres undefined)	>57	i
119	O=C(NCCc1ccncc1)Nc1ccc(Cl)cc1	>57	i
120	CC(=O)Nc1ccc(NC(=O)C(C)Oc2ccccc2F)cc1 (centres undefined)	>57	i
121	O=C(O)c1ccc2c(c1)NC(=O)C(N1CCCC1)S2 (centres undefined)	>57	i
122	CCn1c(SCC(=O)Nc2nccs2)nnc1-c1ccncc1	>57	i
123	COCCOC(=O)C1=C(C)Nc2ncnn2C1c1ccccc1 (centres undefined)	>57	i
124	Cc1oc(-c2ccc(Cl)cc2)nc1CN1CCCC(C(=O)NCc2cccnc2)C1 (centres undefined)	>57	i
125	CS(=O)(=O)NCCSCc1ccco1	/	i
126	COc1ccc(N2CCN(CC(=O)Nc3nc4c(s3)CC(C)CC4)CC2)cc1 (centres undefined)	>57	i

The list is partial (hit frequency here may not be typical).
